TRPV1 potentiator = potentiators of human vanilloid receptor 1 (TRPV1); 320,000 compounds, 0.02% hits; potentiation, % at 8.33 µM; TRPV1-expressing cells, Fluo-8 calcium influx, capsaicin EC20 potentiation; host cell line not named in the record; control for the full effect not named in the record; active means potentiation above 80%; inconclusive means 30% to 80%; inactive means below 30%; note: 0% is about no effect
Target sequence (Q8NER1 whole entry, looked up): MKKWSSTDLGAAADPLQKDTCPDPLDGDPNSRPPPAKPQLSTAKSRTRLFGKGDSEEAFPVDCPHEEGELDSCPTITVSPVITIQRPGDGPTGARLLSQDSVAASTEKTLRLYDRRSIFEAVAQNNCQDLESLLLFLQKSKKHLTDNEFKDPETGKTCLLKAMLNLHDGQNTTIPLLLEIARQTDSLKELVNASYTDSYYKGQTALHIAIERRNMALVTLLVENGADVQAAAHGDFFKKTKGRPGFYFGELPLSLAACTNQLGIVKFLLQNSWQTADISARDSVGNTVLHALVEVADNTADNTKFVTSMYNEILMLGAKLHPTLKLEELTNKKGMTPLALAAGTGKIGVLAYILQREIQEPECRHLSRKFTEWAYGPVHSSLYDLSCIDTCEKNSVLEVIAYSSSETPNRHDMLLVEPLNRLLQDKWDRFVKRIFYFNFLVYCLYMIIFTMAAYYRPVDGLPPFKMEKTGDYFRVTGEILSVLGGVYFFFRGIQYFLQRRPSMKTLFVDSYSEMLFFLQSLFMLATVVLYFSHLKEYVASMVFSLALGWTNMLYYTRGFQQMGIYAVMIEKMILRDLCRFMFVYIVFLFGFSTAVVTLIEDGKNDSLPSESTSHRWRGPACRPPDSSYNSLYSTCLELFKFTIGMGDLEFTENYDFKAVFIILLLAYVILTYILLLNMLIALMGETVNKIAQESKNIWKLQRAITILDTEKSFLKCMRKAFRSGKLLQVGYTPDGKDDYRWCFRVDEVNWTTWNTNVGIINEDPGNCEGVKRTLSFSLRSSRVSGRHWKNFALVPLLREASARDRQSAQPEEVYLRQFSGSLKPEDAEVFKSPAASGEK
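TRPV1-expressing cells were cultured overnight at 35.5C and loaded with Fluo-8 calcium dye for 40 to 90 min at room temperature. After a 10 s baseline, compound was added and calcium influx was read kinetically for 3 min (ex 480/em 520 nm).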
Sfp inh = inhibitors of Bacillus subtilis Sfp phosphopantetheinyl transferase; 310,000 compounds, 3.5% hits; Potency, µM, inactives show max response, negative = inhibition, actives largely listed as inhibitors; Biochemical Sfp PPTase activity, qHTS; active = well fitted inhibition curve with a large enough effect; inconclusive = small, poorly fitted or top-dose-only effect, or another doubt; inactive = no such curve, though single readings can be large or run the other way;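 note: the enzyme is Sfp with the accession as filed and its product quenches rhodamine fluorescence; potency is the fitted concentration of half-maximal effect; 0% = enzyme reaction without inhibitor and -100% = no enzyme wells; top concentration of the series not given in the record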
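After 15 min at room temperature with compound, 15 nM Sfp received 5 uM rhodamine-CoA plus 12.5 uM BHQ-2-ybbR (50 mM Hepes pH 7.6, 10 mM MgCl2). Rate came from the fluorescence difference over 30 min, ex 525/em 598 nm.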
Menin-MLL FL inh = inhibitors of human menin-MLL interaction, wild-type MLL peptide | Fluorescence polarization, fluorescein-MLL peptide displacement from menin | FP activity change, % at 61.4 µM | 290,000 tested, under 10 active | AID 1766; inconclusive = falling polarisation curve, or a change in total fluorescence; inactive = total fluorescence flat and polarisation flat or rising; no compound was filed as active; the % refers to the polarisation; negative = inhibition;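 note: % of control where 0% means no effect; inhibitors lower the polarisation; unlabelled MLL peptide was the positive control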
gsp antag = antagonizes gsp, the McCune-Albright syndrome mutation; gsp-mutant cells, cAMP HTRF, 30 min; control for the full effect not named in the record; Potency, µM (doses to about 76.9 µM), inactives show top-dose activity change, negative = inhibition, most hits filed as inhibitors; 340,000 compounds, 0.4% hits; active = falling curve of any shape with a large fitted effect; inconclusive = falling curve, mostly with a smaller effect; inactive = flat or rising curve; cell line not stated here;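 note: intracellular cAMP measured with PDE inhibitor Ro 20-1724 present during compound exposure; potency is the fitted concentration of half-maximal effect; % is set by controls: 0 for no effect and ±100 for the full control effect; nearly all actives have a fitted effect of over 65% in size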
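HTRF cAMP measurement after 30 min RT detection following 30 min, 37C compound treatment alongside […] (added as 300 uM solution) in G418-selected cells seeded at 2000/well and grown 16–24 h.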
ClpP mod = qHTS Assay for Activators of ClpP; 340,000 compounds, 1.9% hits; Potency, µM (top dose mostly 57.5 µM), for inactives: at the highest dose activity change, negative = active; AID 651965, 2013; purified B. subtilis ClpP, FRET peptide cleavage, 20 min; ATP-dependent Clp protease proteolytic subunit (Bacillus subtilis (strain 168)), P80244; active = well fitted falling curve with a large enough effect; inconclusive = small, poorly fitted or top-dose-only effect; inactive = no such curve, though single readings can be large or run the other way; note: potency is the fitted concentration of half-maximal effect; the source files actives as falling curves though it sought activators and does not explain the sign; nearly all actives have a fitted effect of over 65% in size; many hits overshoot -100%
Target sequence (P80244 whole entry, looked up): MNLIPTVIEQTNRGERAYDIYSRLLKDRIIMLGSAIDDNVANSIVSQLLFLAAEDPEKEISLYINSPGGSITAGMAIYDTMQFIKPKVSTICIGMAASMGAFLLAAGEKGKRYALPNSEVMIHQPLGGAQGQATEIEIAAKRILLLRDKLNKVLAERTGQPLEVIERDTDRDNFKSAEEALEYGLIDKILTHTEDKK
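Purified B. subtilis ClpP, 10 microg/mL final in Tris/HCl pH8 with KCl, BSA, glycerol and Tween-20, cleaved an Abz/nitrotyrosine-quenched decapeptide. Fluorescence (ex 320, em 430) was read at 0 and 20 min at room temperature. Delta was normalized to 5.8 microM ADEP and DMSO/no-enzyme controls.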
gsp ag = gsp mutant agonism. gsp mutant cells, cAMP HTRF, 30 min; control for the full effect not named in the record. Potency, µM (doses to about 76.9 µM), for the others: top-dose activation (cAMP increase), most hits filed as activators. 340,000 compounds, 0.13% hits. AID 624287; active = well fitted activation curve with a large enough effect; inconclusive = small, poorly fitted or top-dose-only effect, or another doubt; inactive = no such curve, though single readings can be large or run the other way; cell line not stated here;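 note: phosphodiesterase inhibitor Ro 20-1724 added with compounds to block cAMP breakdown; potency is the fitted concentration of half-maximal effect; nearly all actives have a fitted effect of over 60% in size; about a fifth of the inactives were tested at one dose only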
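Cells stably selected in G418 were plated at 2000/well, grown 16-24 hr, then given compounds in DMSO with the PDE inhibitor […] (300 uM solution added) for 30 min at 37C; cAMP was read by HTRF.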
D2 potentiator = positive allosteric modulators of human D2 dopamine receptor; DiscoveRx D2 beta-arrestin cells, luminescence, 90 min; 100% = 57 uM dopamine signal; 360,000 compounds, 0.23% hits; P14416; potentiation, % (concentration not given with the values); AID 624464; active = potentiation of 50% or more; inconclusive = 30% to 50%; inactive = 30% or less;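 note: tested on top of an EC20 dose of dopamine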
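D2 cells co-treated with compound plus 50 nM dopamine (EC20) for 90 min at 37 deg C to detect potentiation. Beta-arrestin recruitment was read as enzyme-fragment luminescence after 1 h at ambient temperature. Full response was set by 57 uM dopamine.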
Active calls of the source: *; ? = inconclusive; . = not tested or not shown; & = joins results of further samples; [ ] = another dose, or the depositor's remark.

The line under a structure holds: Sfp inh, gsp antag, gsp ag, D2 potentiator, ClpP mod, Menin-MLL FL inh, TRPV1 potentiator
1: COc1ccc(CNC(=O)Cc2ccc(OC)c(S(=O)(=O)N3CCOCC3)c2)cc1
  14%, -11%, 10%, -17, -0.3%, 1.4, 11
2: Cc1cccc(C)c1NC(=O)CN(C)C(=O)c1ccccc1OCc1ccc(F)cc1
  ., 10%, -15%, 1, -10%, ., -1
3: CCOc1ccc2[nH]c(=S)[nH]c2c1
  -7%, -4%, -31%[inhibitor], -5, 2.3%, 2.7, -3
4: COc1ccc(NC(=O)C2=CC(c3ccco3)=NS(=O)(=O)N2C)cc1
  16%, 4%, -50%, -1, 0.6%&-3.1%, -5.8, -20
5: COc1ccc(/C(C)=N/OCC(=O)N=Nc2c(O)[nH]c3ccccc23)cc1
  16%, -11%, 10%[15.4 µM], -12, 0.1%, 2.7, -6
6: Cc1nnc(N2CCCC(C(=O)NCc3ccc(OC(C)C)cc3)C2)c2nn(-c3ccccc3)c(C)c12 (stereo not given)
  89µM*, ?, 12%, 8, 3.7%, ., -9
7: Cc1ccc2c(c1)nc1c3ccccc3nc(-c3ccccc3N)n21
  ., ., 2%, -12, -9.5%, ., .
8: CCN(CC)CCCn1c2c(c(SCC(=O)Nc3ccc(OC(F)(F)F)cc3)nc1=O)CCC2
  ., 6%, -11%, -18, -4.0%, ., 1
9: O=C(O)C1(P(=O)(c2ccccc2)c2ccccc2)CCC1
  9%, 3%[15.4 µM], -45%[inhibitor], -30, 1.0%, 0.7, 22
10: Cc1ccc(Nc2nc3ccccc3n3cnnc23)c(Cl)c1
  15%, ?, 18%, -2, -14%, 1.1, -4
11: Cc1ccc(-c2csc(N/N=C/c3ccco3)n2)c(C)c1
  14%, -8%, -21%, 56*, -7.6%, 2.0, 7
12: CCCNC(=O)c1ccc(S(=O)(=O)c2ccc(OC)cc2)c([N+](=O)[O-])c1
  -15%, ?, 20%, 14, ., 7.3, -1
13: CCCn1nc(NC(=O)C(C)(C)C)c2cc3cc(OC)ccc3nc21
  17%, -13%, ?, 9, -8.4%, 0.1, -19
14: CC(NC(=O)CN1CCCC1)c1ccccc1 (stereo not given)
  14%, -9%, 4%[15.4 µM], 3, -1.8%, 7.3, -18
15: Cc1cc(Nc2ccccc2)nn1C(=O)c1ccc(Cl)cc1
  -8%, -1%, 17%[15.4 µM], -6, -0.3%, 3.4, 3
16: Cc1cc(C)nc(NC(=O)CCN2C(=O)c3ccccc3S2(=O)=O)n1
  ., 2%, 16%, -8, 6.0%, ., 3
17: CN1C(=O)/C(=C/c2ccccc2F)Sc2ccc(C(=O)NCC3CCCO3)cc21 (stereo not given)
  -19%, 32µM*, ?, -15, -8.1%, -1.1, 0
18: O=C(Nc1ccc(Cl)cn1)Nc1ccc(Cl)cn1
  -18%, 7%, -17%[15.4 µM], -3, ., 1.7, 10
19: CC(C)Cn1c(-c2cccnc2)nc2c1c(=O)[nH]c(=O)n2CC(C)C
  10%, -4%, 25%, -9, -22%, -8.7, 0
20: Cc1nc2cc(C(=O)O)ccc2s1
  10%, 4%, 6%, -2, -3.9%, 0.0, 4

Continued:
The line under a structure holds: Sfp inh, gsp antag, gsp ag, D2 potentiator, ClpP mod, Menin-MLL FL inh, TRPV1 potentiator
21: CN1CCN(S(=O)(=O)c2ccc(NN)nc2)CC1
  ., 11%, ?, 29, -6.2%, ., -2
22: COc1ccc2cc3cc(C(=O)N4CCCCCC4)oc3nc2c1
  -1%, -4%, 8%, -2, 4.3%, 1.2, -10
23: Cc1ccc(CSC2=NCCN2C(=O)C2CC2)cc1
  7%, -9%, 0%, -12, -1.0%, 7.3, 14
24: CC(C)(C)CC(=O)Nc1ccccc1N1CCN(c2ccc(F)cc2)CC1
  -12%, -2%, -9%[15.4 µM], 7, -1.4%, 0.8, -15
25: COc1cc(NC(=O)c2cc(OC)c(OC)c(OC)c2)c2ncccc2c1
  ., -14%, 21%, 3, ., ., .
26: COc1cccc2sc(NNC(=O)C3=COCCO3)nc12
  -2%, 2%, 14%[15.4 µM], 2, 35µM*, ?, -1
27: Cc1cccc(NC(=O)c2cc(S(=O)(=O)N3CCCCC3)c[nH]2)c1C
  15%, 3%, -18%, -2, 0.2%&2.1%, -1.5, 23
28: Nc1nonc1C(=O)NCCNC(=O)c1ccccc1F
  -4%, 2%, ?, -4, -1.2%, -7.9, 5
29: NC(=O)CC(NC(=O)c1ccccc1)c1ccc(NC2CCN(Cc3ccccc3)CC2)c([N+](=O)[O-])c1 (stereo not given)
  7%, 6%, ., -16, 0.9%, -1.4, ?
30: C(=N\n1cnnc1)/c1ccc(-c2ccccc2)cc1
  3%, 11%, 16%, 3, ?, -1.8, 12
31: CCC1C(=O)NCCN1C(=O)c1ccc2nc(Cc3ccc(OC)cc3)oc2c1 (stereo not given)
  5%, 13%, 11%, -3, -0.7%, -9.6, -2
32: c1ccc(C(=NNc2nc3ccccc3s2)c2ccccn2)cc1
  ., -16%, -83%[inhibitor], -19, -5.9%, ., .
33: O=C1c2cccc(OCC(=O)N3CCCc4ccccc43)c2CCN1Cc1ccc(F)cc1
  -17%, ?, 11%, -14, -2.9%, 8.1, 9
34: N/C(=N\OC(=O)Cc1cccs1)c1ccc([N+](=O)[O-])cc1
  9%, 16%, 13%[15.4 µM], 5, -0.9%, 6.3, -2
35: CCOc1ccc(-n2cc(C(=O)Nc3ccc(Cl)cn3)c3cc(OC)c(OC)cc3c2=O)cc1
  -3%, 6%, -10%, -6, 0.1%, 0.8, 10
36: CCOc1ccc2c(c1)C(C)=CC(C)(C)N2C(=O)Nc1ccccc1
  ?, 8%, 0%, 14, 28µM*, -14, 6
37: Cc1ccc(-n2ccnc(SCC(=O)NCCc3ccccc3)c2=O)cc1F
  ., -13%, -22%[15.4 µM], -2, ., ., -22
38: Cc1nn(C)c(C(=O)N/N=C/c2ccc(C(F)(F)F)cc2)c1[N+](=O)[O-]
  14%, -6%, 14%, -15, 0.2%, ., -40
39: CCCCN(CC)CCNC(=O)c1[nH]c(C)c(C(C)=O)c1C
  3%, -7%, -1%, -24, -1.1%, 2.1, 11
40: CCCCOC(=O)Nc1ccccc1C(N)=O
  18%, 14%, -26%, -2, -3.9%, -2.7, 8

(next part)
The line under a structure holds: Sfp inh, gsp antag, gsp ag, D2 potentiator, ClpP mod, Menin-MLL FL inh, TRPV1 potentiator
41: O=C(Oc1ccc2c(=O)c(Cl)coc2c1)c1ccncc1
  -18%, 6%, 18%, -6, -3.6%, 2.2, -3
42: CN(C)/C=N/c1ncc(C(=O)c2ccc(Cl)cc2Cl)s1
  -30%, -7%, 14%[15.4 µM], 0, ., 3.3, -32
43: O=C(c1cc(-c2cccnc2)nc2ccc(Br)cc12)N1CCN(c2ncccn2)CC1
  -6%, -3%, ?, 17, -2.9%, 0.8, 12
44: Cn1nc(C(=O)Nc2nc(-c3ccccn3)cs2)c2ccccc2c1=O
  ., -10%, -9%, ?, -0.6%, ., 24
45: CS(=O)(=NS(=O)(=O)c1ccc(Cl)cc1)c1ccccc1 (stereo not given)
  8%, 14%, -3%, 3, 1.5%, 2.8, -2
46: Cc1nn(-c2ccccc2)c(C)c1/C=N/NC(=O)c1ccccc1O
  3%, ?, -4%[15.4 µM], -10, -2.3%, -3.6, -4
47: Cc1nn(Cc2ccc(Cl)cc2)c(C)c1NC(=O)c1cc(-c2ccco2)on1
  -8%, -32%, 11%, -3, -8.7%, 6.7, -8
48: O=C(Nc1ccc(Br)cc1)C1CC(c2c(F)cccc2Cl)=NO1 (stereo not given)
  14%, -7%, 8%, -6, -0.6%, -0.1, 6
49: O=C(CCCc1ccccc1)Nc1ccccc1C(F)(F)F
  11%, 8%, -1%, -7, ., -5.6, 8
50: O=C(COC(=O)C1CC(O)CN1S(=O)(=O)c1ccc(Cl)cc1)c1cccc(Cl)c1 (stereo not given)
  10%, -7%, 32%[15.4 µM], -4, -1.0%, 0.5, -3
51: COc1ccc(NC(=O)CN(C)C(=O)Cc2c(C)nc3ccccc3c2C)cc1
  ., -6%, 13%[15.4 µM], -1, ., ., 8
52: CCCC(=O)C1C(=O)CC(CC(C)SCC)CC1=O (stereo not given)
  2%, -13%, 21%, 2, -1.6%, 1.8, 7
53: CCOC(=O)c1ccc2nc(NC(C)=O)sc2c1
  10%, 3%, -16%, 1, ., -3.0, -17
54: COCCn1nnnc1SCC(=O)NCc1ccc2c(c1)OCO2
  16%, 5%, -11%[15.4 µM], 0, ., 0.2, 3
55: Cc1ccc2oc(=O)c3cnn(CC(=O)NC4CCN(Cc5ccccc5)CC4)c3c2c1
  12%, -18%, -34%[inhibitor], -9, 0.3%, 2.2, -7
56: O=C(Nc1ccccc1F)C1CCCC1
  ., 12%, 1%[15.4 µM], -17, 0.0%, ., .
57: COC(=O)c1ccccc1S(=O)(=O)N1CCn2cccc2C1C (stereo not given)
  8%, -4%, 15%[15.4 µM], -3, -2.0%, -7.3, 3
58: O=C1CSC(=Nc2ccccc2)N1Cc1ccccc1
  -14%, -4%, -16%[15.4 µM], -7, ., -1.7, -14
59: COc1ccc(N2C(=O)CSC2c2ccccc2[N+](=O)[O-])cc1 (stereo not given)
  6%, -7%, -2%[15.4 µM], -1, -3.5%, -3.6, 8
60: Cc1cccc(C(=O)c2cn[nH]c2-c2ccc(C)cc2O)c1
  7%, 4%, 2%[15.4 µM], -16, -5.6%, -2.4, 3

(cont.)
The line under a structure holds: Sfp inh, gsp antag, gsp ag, D2 potentiator, ClpP mod, Menin-MLL FL inh, TRPV1 potentiator
61: COC(=O)c1ccccc1N(C)S(=O)(=O)c1cc2c(cc1C)OCC(=O)N2
  4%, -1%, -4%, -2, ., 1.1, 5
62: COc1ccccc1CNCC(=O)Nc1ccc(N2CCOCC2)cc1
  -8%, -4%, ?, -4, -1.2%, 14, 2
63: COc1ccc(OC)c(C(C(=O)NC2CCCCC2)N(Cc2ccco2)C(=O)c2ccccn2)c1 (stereo not given)
  15%, 2%, 2%[15.4 µM], -3, ., -0.9, 2
64: O=S(=O)(c1ccc(Cl)cc1)N1CCN=C1SCc1ccc(Cl)c(Cl)c1
  5%, 12%, ?, -13, 0.2%, 6.2, -10

Compounds were not picked by outcome, and some 5.1% of all compounds hit somewhere here.
